# Screening data deposited in PubChem by ICCB-Longwood Screening Facility, Harvard Medical School.
# MenB inh = Mtb MenB enzyme inhibition. P9WNP5. MenB enzyme assay, absorbance read-out; some hits fall short of the stated cut. inhibition, %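 (about 12 µg/mL by stock and volumes)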. 100,000 tested, 0.43% active. AID 540299;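 active = mean of two replicates above 30%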;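 also: 0% = no compound and 100% = wells with inactive enzyme; the first replicate is given; strong numbers were not always called active; inactives centre near -10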
# Target sequence (P9WNP5 whole entry, looked up): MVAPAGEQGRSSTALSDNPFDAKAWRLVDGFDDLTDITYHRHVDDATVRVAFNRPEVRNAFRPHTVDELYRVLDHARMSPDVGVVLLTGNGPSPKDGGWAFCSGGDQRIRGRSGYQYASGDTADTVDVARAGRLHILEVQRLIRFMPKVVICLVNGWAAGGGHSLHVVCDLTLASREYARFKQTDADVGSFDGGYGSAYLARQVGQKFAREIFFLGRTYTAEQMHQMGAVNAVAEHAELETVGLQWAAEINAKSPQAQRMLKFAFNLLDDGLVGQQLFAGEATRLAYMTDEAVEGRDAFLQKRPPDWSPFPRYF
# Mtb MbtI inh = inhibitors of Mycobacterium tuberculosis siderophore enzyme MbtI | purified MbtI enzyme, fluorescence intensity read-out | inhibition, %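 (about 17 µg/mL by stock and volumes)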 | 100,000 tested, 0.89% active;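 active = above 50% in both replicates, above 80% if mildly self-fluorescent; inactive = the rest, strongly fluorescent compounds included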;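 also: 0% = mean of negative and 100% = mean of positive controls; one replicate is shown; some compounds called inactive have numbers as strong as hits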
# Target sequence (P9WFX0 whole entry, looked up): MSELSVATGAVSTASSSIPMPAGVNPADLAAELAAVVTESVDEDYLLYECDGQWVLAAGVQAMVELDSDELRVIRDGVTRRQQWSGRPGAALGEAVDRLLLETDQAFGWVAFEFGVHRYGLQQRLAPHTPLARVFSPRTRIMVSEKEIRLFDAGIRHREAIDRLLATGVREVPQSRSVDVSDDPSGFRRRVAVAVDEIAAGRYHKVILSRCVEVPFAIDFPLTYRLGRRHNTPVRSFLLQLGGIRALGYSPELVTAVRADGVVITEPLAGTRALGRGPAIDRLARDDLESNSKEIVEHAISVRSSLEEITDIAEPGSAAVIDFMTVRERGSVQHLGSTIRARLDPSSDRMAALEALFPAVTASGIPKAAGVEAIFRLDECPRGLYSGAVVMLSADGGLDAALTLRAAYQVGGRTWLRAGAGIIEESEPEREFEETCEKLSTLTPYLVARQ
# PV pol inh = poliovirus RNA polymerase inhibition. P03300. poliovirus polymerase elongation, fluorescence polarization; hits give low values. % elongation, % (compound at 16.7 µg/mL). 150,000 tested, 0.66% active. AID 588519; in the data active = % elongation below about 90%; also: some results filed as inactive read as strong as hits
# PV pol inh intensity = also measured in PV pol inh; calls as there; % elongation; measured here: total intensity read-out; formula for this scale not given here;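 total fluorescence in place of polarization; lower means less elongation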
# * marks the source's active call; other numbers are inactive results; . = no result given; & = joins results of further samples.
SMILES,MenB inh,Mtb MbtI inh,PV pol inh,PV pol inh intensity
CC(=O)N1CCOc2cc(S(=O)(=O)NCC3CCC(C(=O)Nc4cccc(C)c4)CC3)ccc21 (configuration not stated),-5,-6,104,106
O=C(Nc1cc(C(F)(F)F)cc(C(F)(F)F)c1)C12CC3CC(CC(C3)C1)C2,-14,-15,102,111
CCc1ccc(Sc2cc(C(=O)NCc3cccnc3)c3ccccc3n2)cc1,-15,13,103,104
CC1(C)C(c2ccccc2)=NC(c2ccccc2)N1O (configuration not stated),-44,-1,99,103
O=C(CC1SC(=NC2CC2)NC1=O)Nc1ccc(Oc2ccccc2)cc1 (configuration not stated),-6,1,102,106
Cc1ccc(C(=O)NCCN2CCCC2)cc1,1,.,108,111
COc1cccc(-n2c(CNC(=O)OC(C)(C)C)n[nH]c2=S)c1,-29,6,106,101
Cc1ccccc1-c1nnc(NC(=O)CC(C)C)s1,-31,24,100,100
CCOC(=O)c1c(-c2ccc(Cl)cc2)nn2c1NCN(CCc1ccccc1)C2,-29,7,101,103
O=C(c1ccc(F)cc1)n1c(NCc2ccccc2)n[nH]c1=S,6,-2,99,101
COc1ccc(C(=O)Oc2cccnc2)cc1OC,8,14,101,101
CS(=O)(=O)c1ccc(C(=O)Nc2ccc3sccc3c2)cc1,-25,67,105,107
COc1ccc(CC(=O)NC2CCN(Cc3nnnn3C(C)(C)C)CC2)cc1OC,-18,-5,99,102
CCCC1=NN(C(=O)/C=C/c2cccs2)C(=O)C1Cc1c(F)cccc1Cl (configuration not stated),-32,-2,102,99
O=C(NNC1=NCCC1)C1CC1,-8,-11,106,111
COc1ccc(C2(C(=O)NCCN3CCOCC3)CCCC2)cc1,6,-8,100,101
CNc1ccc2cccc(O)c2n1,-11,-34,102,104
COc1ccc(/C=C2/N=C(SC)NC2=O)cc1OC,-59,-1,102,103
CCN1CCCC1CNC(=O)c1nnc(Cc2ccc(F)cc2)o1 (configuration not stated),7,6,101,99
Oc1ccccc1/C=N/c1ccnn1-c1ccccc1,-3,1,100,102
CC1CCc2c(sc3nc(CN(C)C)[nH]c(=O)c23)C1 (configuration not stated),-19,-5,101,109
CCc1cccc(OCCCN2CCN(C)CC2)c1,11,-7,102,105
COc1ccc(OCC(=O)NC2CCCCC2)cc1,.,-1,103,99
O=C(COC(=O)Cc1cccc(C(F)(F)F)c1)Nc1ccccc1,.,-8,99,94
COc1ccc(CNC(=O)COc2cc(=O)n(C)c3ccccc23)cc1,-4,-5,102,103
CCc1n[nH]c(=S)n1/N=C/c1c(C)nn(-c2cccc(Cl)c2)c1Cl,-23,3,104,103
CSC1=N/C(=C\c2ccccc2O)C(=O)N1Cc1ccco1,-18,-8,102,102
N#C/C(=C\Nc1ccc(F)c(Cl)c1)S(=O)(=O)Cc1ccco1,7,5,106,106
COc1ccccc1N(C(=O)NCc1ccccc1)C1=NCC(C)S1 (configuration not stated),-28,0,100,99
CCOc1cc(/C(O)=C(\C#N)c2nc3ccccc3[nH]2)cc(OCC)c1OCC,-40,-18,100,103
Cc1nn(-c2ccc(F)cc2)c2sc(C(=O)NO)cc12,0,-1,104,104
CNC(=O)O/N=C1\CC(C)(C)Cc2csc(SC)c21,-2,8,100,98
CC1CN(S(=O)(=O)c2cccc(C(=O)O)c2)CC(C)O1 (configuration not stated),-22,.,106,109
CCCNC(=O)Cn1nc(CC)n2c(cc3ccccc32)c1=O,8,10,100,99
Cn1[nH]c(=S)sc1=NCc1ccccc1,.,52,104,106
Cc1ccc2c(C#N)cc(C)cc2c1,-10,23,103,104
Cn1c(=O)c2c(nc3n2CC=NN3)n(C)c1=O,-13,2,103,103
CCN1C(=O)S/C(=C/c2cccs2)C1=O,-22,-9,102,104
NC(=O)C1CCCN(C(=O)C(c2ccccc2)c2ccccc2)C1 (configuration not stated),-5,15,98,103
O=C1CC(N2CCCCC2CCO)C(=O)N1c1ccccc1 (configuration not stated),1,54,99,97
COc1nc(OC)nc(N2CCC(C(=O)NCC3CCCCC3)CC2)n1,3,-5,106,102
COC(=O)C1=C(C)NC(C)=C([N+](=O)[O-])C1c1ccccc1C(F)(F)F (configuration not stated),.,-4,100,101
O=C(c1ccc2nonc2c1)N1CCN(C(c2ccccc2)c2ccccc2)CC1,-29,-8,106,104
Cc1ccc(S(=O)(=O)C2CS(=O)(=O)CC2S(=O)(=O)c2ccc(C)cc2)cc1 (configuration not stated),-23,.,109,113
O=C(O)C1C2C=CC(C2)C1C(=O)Nc1nc2ccc(Br)cc2s1 (configuration not stated),-12,.,102,97
COc1ccc(-c2nc3ccc4ccccc4c3c3c2CCCC3)cc1,-8,49,102,103
Cc1nn(-c2ccccc2)c(Cl)c1/C=N/O,.,-7,101,101
CC(=O)N(C)c1cccc2ccccc12,-22,9,100,100
Cc1noc(C(=O)N2C(C)CCCC2C)c1Cl (configuration not stated),-14,7,97,102
CCCN1CN=C(Nc2nc(-c3ccccc3)c3cc(Cl)ccc3n2)NC1,-23,-3,102,100
Cc1sc2nc(CC(=O)N3CCCC3)[nH]c(=O)c2c1C,-53,67,75*,77*
Cn1c(-c2ccccc2)c(C(=O)COC(=O)c2ccc(S(=O)(=O)NCc3ccco3)cc2)c2ccccc21,-16,11,100,103
CS(=O)(=O)N(CC(=O)NCc1ccco1)Cc1ccc(Cl)c(Cl)c1,-33,22,105,102
CC(C)(C)c1nnc(NS(=O)(=O)c2ccc(F)cc2)s1,-28,26,100,102
O=C1C(c2c(O)[nH]c3ccccc23)=Nc2ccccc21,3,-5,99&100,103&100
CC1C2C(C)N(C)C(=O)N(C)C2N(C)C(=O)N1C (configuration not stated),-21,6,103,101
CCN(Cc1ccccc1)C(=O)CSC1=Nc2ccccc2C2=NC(c3ccccc3)C(=O)N12 (configuration not stated),-13,27,101,101
CCN1CC=C2C(C1)C(c1ccc(Cl)s1)C(C#N)=C(N)C2(C#N)C#N (configuration not stated),-125,26,76,193
O=C(CN1C(=O)CCc2ccccc21)NC1CCCc2ccccc21 (configuration not stated),-15,0,100,109
Cn1nc(C(=O)Nc2ccccc2)c2c1-c1ccsc1CC2,-19,-17,99,102
# More structures follow:
SMILES,MenB inh,Mtb MbtI inh,PV pol inh,PV pol inh intensity
OC(CNCC1(N2CCCCC2)CCCCC1)COCc1ccccc1F (configuration not stated),-12,-2,96,102
COc1ccc(C(=O)C(C)Sc2nnc(-c3ccccc3OC)n2C)cc1 (configuration not stated),6,21,98,102
COc1ccc(C)c2sc(NN)nc12,-23,-26,99,108
CN(CC(=O)Nc1ccc(F)c(F)c1F)C(=O)c1cccnc1N1CCCC1,-15,3,101,91
COc1ccc(C)c2sc(=NC(=O)C(C)(C)C)n(C)c12,-19,-1,101,109
O=S(=O)(N1CCCCC1)N1CCNCC1,-14,-6,103,106
OC(CN=Cc1ccccc1)c1ccccc1 (configuration not stated),-2,-16,99,100
Cc1ccc(CC(=S)N2CCOCC2)cc1,2,69*,96,95
CCn1c(=O)cc(SCC(=O)Nc2ccc(F)cc2)c2ccccc21,-4,-2,99,103
NC(=O)C1CCN(C2=NC(=O)/C(=C/c3cn(-c4ccccc4)nc3-c3cccs3)S2)CC1,-43,-35,103,103
CCC(C)NC(=O)c1cc2c(=O)n(CC)c3ccccc3c2s1 (configuration not stated),-13,56,104,102
COc1ccc(-c2[nH]c3c(=O)n(C)c(=O)n(C)c3c2O)cc1OC,-4,38,99,100
C#CCOc1nc(OCC#C)nc(N(c2ccccc2)c2ccccc2)n1,-64,26,104,101
Cc1ccc(NC(=O)N2CCCCC2C)cc1Cl (configuration not stated),-10,-23,99,100
Nc1nnnn1NCc1ccc(-c2ccc(F)cc2)o1,-31,48,106,103
Cc1cccc(C2=NC(C(F)(F)F)(C(F)(F)F)N=C(c3ccco3)O2)c1,8,-4,102,101
Cc1onc(-c2ccccc2)c1-c1csc(Nc2ccccc2Cl)n1,-28,-10,102,99
O=C(Oc1ccc(Cl)c(Cl)c1)c1ccccc1F,-15,-10,105,99
O=C(NC1CCCCCCC1)c1nnc(-c2cccc(Cl)c2)o1,-15,-6,100,108
Cc1ccc(C)c(CN2C(=O)C(C(C)C(=O)NCCc3ccc(Cl)cc3)Sc3ccccc32)c1 (configuration not stated),-16,0,100,104
N#Cc1ccccc1Sc1ccccc1C(=O)N1CCN(CC(=O)N2CCCC2)CC1,8,11,98,98
Cn1c(C(=O)OCC(=O)NCc2cccs2)cc2sccc21,-18,-6,102,101
CN(C)C(=S)NC(C)(C)C,-6,1,101,96
CCSc1nnc(NC(=O)C2CC(=O)N(c3ccccc3OC)C2)s1 (configuration not stated),4,-7,107,110
CCC(=O)Oc1cc2c(C(=O)OC(C)C)c(C)oc2cc1Br,16,-3,101,99
CC1=C(C(=O)OCc2ccccc2)C2(O)C(=O)c3ccccc3C2(O)N1 (configuration not stated),0,.,98,93
O=C(O)C1CN(Cc2ccccc2)C1,-41,-3,103,102
CCOc1ccccc1N(C)C(=O)c1cc2c(=O)n(CC)c3ccccc3c2s1,-9,13,103,97
O=C(O)c1ccc2c(c1)C1C3CCC(C3)C1C(c1ccccc1)N2 (configuration not stated),-23,.,105,100
Cc1cc(NC(=O)COc2coc(CN3CCN(c4ccc(F)cc4)CC3)cc2=O)no1,9,12,99,107
CCOC(=O)c1c(C)[nH]c(C)c1C(=O)COC(=O)C1CC2CCCC(C1)C2=O (configuration not stated),-11,2,101,98
O=C(COC(=O)c1ccco1)Nc1cccc2ccccc12,-33,-5,100,104
CCn1c(=O)cc(SCC(=O)NCCCN2CCN(c3ccc(F)cc3)CC2)c2ccccc21,-14,21,100,102
CC(=O)Nc1ccc(NC(=O)Cn2cnc3c(oc4ccccc43)c2=O)cc1,-9,18,99,102
COc1ccc(C2CCCCCN2C(=O)CCn2c(=O)oc3ccccc32)cc1 (configuration not stated),-17,1,107,131
O=C(O)Cc1csc(Nc2ccccc2F)n1,-91,11,101,111
COC(=O)CSc1cc(C)nc(SC)n1,-14,4,99,100
COc1cccc2c1CC/C(=C\c1ccc(N(C)C)cc1)C2=O,-2,3,74,193
CCN(C(=O)CSc1nnc(-c2ccccc2Br)o1)c1nc(C)cs1,-27,-3,102,103
Cc1ccc(S(=O)(=O)Nc2ccc(S(=O)(=O)Nc3nccc(C)n3)cc2)cc1,-3,.,104,103
CCOc1ccc(NC2=NC(C(=O)NCc3ccccc3)CC(=O)N2)cc1 (configuration not stated),-1,.,109,107
O=C(NCCCn1ccc2ccccc21)c1cnccn1,-9,3,104,106
COc1cccc(CNC(=O)C2=C(C)C(=O)OC23CCCCC3)c1OC,-1,-6,100,102
Cc1cccc(NS(=O)(=O)c2c(C)n[nH]c2C)c1,-1,-3,102,106
Cc1[nH]c2ccccc2c1C(OC(C)C)c1ccccn1 (configuration not stated),.,-5,103,103

# 19 of these compounds in another layout.
canonical_smiles | MenB inh | Mtb MbtI inh | PV pol inh | PV pol inh intensity
O=C(O)C1CN(Cc2ccccc2)C1 | -41 | -3 | 103 | 102
CCOc1ccccc1N(C)C(=O)c1cc2c(=O)n(CC)c3ccccc3c2s1 | -9 | 13 | 103 | 97
O=C(O)c1ccc2c(c1)C1C3CCC(C3)C1C(c1ccccc1)N2 (configuration not stated) | -23 | . | 105 | 100
Cc1cc(NC(=O)COc2coc(CN3CCN(c4ccc(F)cc4)CC3)cc2=O)no1 | 9 | 12 | 99 | 107
CCOC(=O)c1c(C)[nH]c(C)c1C(=O)COC(=O)C1CC2CCCC(C1)C2=O (configuration not stated) | -11 | 2 | 101 | 98
O=C(COC(=O)c1ccco1)Nc1cccc2ccccc12 | -33 | -5 | 100 | 104
CCn1c(=O)cc(SCC(=O)NCCCN2CCN(c3ccc(F)cc3)CC2)c2ccccc21 | -14 | 21 | 100 | 102
CC(=O)Nc1ccc(NC(=O)Cn2cnc3c(oc4ccccc43)c2=O)cc1 | -9 | 18 | 99 | 102
COc1ccc(C2CCCCCN2C(=O)CCn2c(=O)oc3ccccc32)cc1 (configuration not stated) | -17 | 1 | 107 | 131
O=C(O)Cc1csc(Nc2ccccc2F)n1 | -91 | 11 | 101 | 111
COC(=O)CSc1cc(C)nc(SC)n1 | -14 | 4 | 99 | 100
COc1cccc2c1CC/C(=C\c1ccc(N(C)C)cc1)C2=O | -2 | 3 | 74 | 193
CCN(C(=O)CSc1nnc(-c2ccccc2Br)o1)c1nc(C)cs1 | -27 | -3 | 102 | 103
Cc1ccc(S(=O)(=O)Nc2ccc(S(=O)(=O)Nc3nccc(C)n3)cc2)cc1 | -3 | . | 104 | 103
CCOc1ccc(NC2=NC(C(=O)NCc3ccccc3)CC(=O)N2)cc1 (configuration not stated) | -1 | . | 109 | 107
O=C(NCCCn1ccc2ccccc21)c1cnccn1 | -9 | 3 | 104 | 106
COc1cccc(CNC(=O)C2=C(C)C(=O)OC23CCCCC3)c1OC | -1 | -6 | 100 | 102
Cc1cccc(NS(=O)(=O)c2c(C)n[nH]c2C)c1 | -1 | -3 | 102 | 106
Cc1[nH]c2ccccc2c1C(OC(C)C)c1ccccn1 (configuration not stated) | . | -5 | 103 | 103

# (list continues)
SMILES,MenB inh,Mtb MbtI inh,PV pol inh,PV pol inh intensity
CCc1ccc(N2C(=O)/C(=C/C=C/c3ccco3)N(CC(=O)OC)C2=S)cc1,-92,29,109,119
FC(F)(F)c1cnc(NCc2nnc3ccccn23)c(Cl)c1,-15,-7,105,104
Cn1cnc2cc(NCc3ccccn3)ccc21,8,-7,104,102
CC(C)C1CC(C)(C)c2ccc(O)cc21 (configuration not stated),-28,-10,100,97
COc1ccc(/C=N/N2CCN(C)CC2)cc1,-9,16,99,102
O=C(Nc1nccs1)C(c1ccccc1)N1CCOCC1 (configuration not stated),-31,-20,101,103
CCC(C(=O)N1CCN(c2cccc(C(F)(F)F)c2)CC1)c1ccccc1 (configuration not stated),-9,-4,100,101
